Source: PubChem
Fluorescein fluor: compound autofluorescence in fluorescein spectral region; Compound autofluorescence, 480/540 nm, fluorescein-equivalent; stronger effect = higher value; max fluorescein-equivalent concentration, M; 59,000 compounds, 0.91% hits; in the data active = max fluorescein-equivalent concentration above about 10 nM; inconclusive = between about 1.1 nM and that limit
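Each compound is tested across a concentration series in 100 mM Tris buffer at pH 8.0. After 15 min at room temperature, plates are imaged with 480 nm excitation and 540 nm emission filters, and intensities are converted to fluorescein-equivalent values.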
Texas Red fluor: Texas Red region autofluorescence. Compound fluorescence, Texas Red channel, 547/618 nm; stronger effect = higher value. 59,000 compounds, 0.06% hits. AID 587. max dye-equivalent concentration, M; in the data active = max dye-equivalent concentration above about 10 nM; inconclusive = between about 1.1 nM and that limit
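Spectral interference profiling: each compound concentration's relative fluorescence, read with a 547 nm excitation and 618 nm emission filter pair, was normalized to a per-plate Texas Red standard curve.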
Rhodamine autofl: compound autofluorescence in rhodamine spectral region; 59,000 compounds, 0.05% hits; Rhodamine-region fluorescence, 547/598 nm, Tris buffer; stronger effect = higher value; max dye-equivalent concentration, M; in the data active = max dye-equivalent concentration above about 11 nM; inconclusive = between about 1.1 nM and that limit
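Compound fluorescence in 100 mM Tris, pH 8.0, read after 15 min at room temperature with 547 nm excitation and 598 nm emission. Output is dye-equivalent concentration from an on-plate rhodamine standard series.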
Tau fil binding: binds recombinant human tau filaments; recombinant tau filaments, thioflavin S fluorescence, 15 h; filaments grown with octadecylsulfate alongside compound; Potency, µM (series often up to 57.1 µM), inactives show at the top dose activity change, negative = inhibition; 71,000 compounds, 2% hits; AID 596;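 note: potency is the fitted concentration of half-maximal effect; % is set by controls: 0 for no effect and ±100 for the full control effect; actives lower thioflavin S fluorescence by blocking filaments or displacing dye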
Target sequence (P10636 whole entry, looked up): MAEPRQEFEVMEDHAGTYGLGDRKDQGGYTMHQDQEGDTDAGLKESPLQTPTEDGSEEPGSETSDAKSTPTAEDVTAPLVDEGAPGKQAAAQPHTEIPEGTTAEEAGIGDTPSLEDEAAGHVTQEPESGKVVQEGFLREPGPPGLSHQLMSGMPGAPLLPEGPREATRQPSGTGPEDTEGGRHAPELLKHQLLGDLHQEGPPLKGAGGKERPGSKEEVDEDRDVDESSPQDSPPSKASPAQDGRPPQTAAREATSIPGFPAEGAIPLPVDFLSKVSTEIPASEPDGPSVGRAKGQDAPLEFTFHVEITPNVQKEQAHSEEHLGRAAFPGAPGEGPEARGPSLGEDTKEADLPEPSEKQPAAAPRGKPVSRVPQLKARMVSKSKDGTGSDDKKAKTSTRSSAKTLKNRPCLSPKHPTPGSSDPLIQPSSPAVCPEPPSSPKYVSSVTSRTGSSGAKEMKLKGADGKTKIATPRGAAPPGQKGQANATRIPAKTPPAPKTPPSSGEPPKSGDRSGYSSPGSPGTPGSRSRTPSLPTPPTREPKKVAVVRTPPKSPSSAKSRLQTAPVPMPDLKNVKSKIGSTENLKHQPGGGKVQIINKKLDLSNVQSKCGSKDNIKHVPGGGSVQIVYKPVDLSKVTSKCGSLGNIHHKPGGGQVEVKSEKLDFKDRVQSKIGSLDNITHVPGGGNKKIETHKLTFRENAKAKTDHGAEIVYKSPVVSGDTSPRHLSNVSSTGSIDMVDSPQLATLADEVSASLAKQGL
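Read-out: ThS fluorescence, 450 nm excitation/510 nm emission; lower signal marks blocked filament formation or displaced dye. Tau at 1 uM with 30 uM ODS, 10 uM ThS, 5 mM DTT, 100 mM NaCl, 10 mM HEPES pH 7.4; 15 h, 37 C.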
HEK293 cAMP cs: counter-screen for TSHR agonists: cAMP increase in parental HEK293 | 73,000 compounds, 2.5% hits | parental HEK293 CNG cAMP sensor, membrane potential fluorescence | AID 938 | Potency, µM (titrated, usually from 57.1 µM), inactives show top-dose activation, usual class: activators; note: potency is the fitted concentration of half-maximal effect; % of control where 0% means no effect; nearly all actives have a fitted effect of over 55% in size
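Parental HEK 293 cells stably expressing a cAMP-gated CNG channel were loaded with membrane potential dye containing 100 uM RO 20-1724 for 60 min. Compound added for 30 min; depolarization read as fluorescence intensity at 590 nm.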
Luciferase inh: blocks Photinus pyralis firefly luciferase activity; P08659; purified firefly luciferase, luminescence, 8 min; Potency, µM (series often up to 57.1 µM), inactives show top-dose activity change, negative = inhibition, usual class: inhibitors; 72,000 compounds, 2.2% hits; AID 411; note: potency is the fitted concentration of half-maximal effect; % is set by controls: 0 for no effect and ±100 for the full control effect; nearly all actives have a fitted effect of over 40% in size
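Titration-based qHTS; buffer 50 mM imidazole pH 7.2, 50 mM KCl, 7 mM MgCl2, 10 uM ATP, 0.01% Tween 20, 0.05% BSA; luciferase/luciferin detector mix added after compound; 8 min, ambient; luminescence.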
ERK AVP inh: vasopressin-driven ERK pathway inhibition; Potency, µM (top dose mostly 57.5 µM), for the others: at the top dose activity, negative = inhibition, hits mostly inhibitors; 72,000 compounds, 0.99% hits; HEK293-V1b, vasopressin-stimulated pERK AlphaScreen; note: potency is the fitted concentration of half-maximal effect; % is set by controls: 0 for no effect and ±100 for the full control effect; nearly all actives have a fitted effect of over 55% in size
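HEK293 cells stably expressing V1b receptor, preincubated 30 min at 37 °C with compound, then stimulated 5 min with 25 nM vasopressin. Phospho-ERK by AlphaScreen SureFire after 5 h RT; normalized to DMSO and vasopressin; AC50 by Hill fit.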
The depositor's hits bear a star; i = inactive; ? = inconclusive; . = not tested or not shown; [ ] = another dose, or the depositor's remark. Unless noted, calls come from the whole dose curve; as a rule, active = well fitted curve in the direction sought with a large enough effect; inconclusive = small, poorly fitted or top-dose-only effect, or another doubt; inactive = no such curve, though single readings can be large; an effect the other way counts as inactive or inconclusive.

Field names: A = Fluorescein fluor; B = Texas Red fluor; C = Rhodamine autofl; D = Tau fil binding; E = HEK293 cAMP cs; F = Luciferase inh; G = ERK AVP inh
[1] Cc1cc2c(C)cc(=O)oc2c2c1NCCC2
  A: ?	B: i	C: i	D: 436.9%	E: -0.7%	F: 4.5%	G: -16.7%
[2] O=c1cc(CN2CCN(c3ccccc3)CC2)c2c(ccc3ccccc32)o1
  A: i	B: i	C: i	D: -4.0%	E: ?	F: 0.4%	G: -8.9%
[3] Cc1ccc(-c2cc(-c3ccccc3Cl)c(C#N)c(N)n2)o1
  A: i	B: i	C: i	D: 12.6µM*	E: 16.5%	F: -9.9%	G: 4.7%
[4] CC1CN(CC(=O)N2CCc3[nH]c4ccccc4c3C2)CC(C)O1 (stereo not given)
  A: ?	B: i	C: i	D: i	E: 1.4%	F: -0.7%	G: 23.7%
[5] COc1cc2cc(C(=O)Nc3ccccc3)c(N)nc2cc1OC
  A: ?	B: i	C: i	D: ?	E: 10.3%	F: 10µM*	G: -18.0%
[6] CCN(C(=O)c1coc(=O)c(Br)c1)c1ccc2c(c1)OCO2
  A: ?	B: i	C: i	D: 157.7%	E: 4.1%	F: -3.5%	G: -6.8%
[7] Nc1ccc2ncccc2c1
  A: ?	B: i	C: i	D: -16.4%	E: 1.3%	F: -11.6%	G: -7.2%
[8] Cc1nc2ccc(NC(=O)N3CCSCC3)cc2nc1C
  A: i	B: i	C: i	D: 0.0%	E: -5.0%	F: -0.6%	G: -9.3%
[9] CN1CCN(c2ncc3nc(-c4ccc(F)cc4)c(=O)n(Cc4cccs4)c3n2)CC1
  A: i	B: i	C: i	D: 140.3%	E: -14.5%	F: 2.5%[11.4 µM]	G: 20µM*
[10] COc1ccc(-c2nc3cnc(N4CCNCC4)nc3n(C3CC3)c2=O)cc1
  A: i	B: i	C: i	D: 77.2%	E: ?	F: -1.2%[11.4 µM]	G: 22.6%
[11] Cn1c(C(=O)N2CCc3ccccc3C2)cc2c(=O)n3ccccc3nc21
  A: i	B: i	C: i	D: 11.1%	E: 2.0%	F: -1.3%	G: 31.1%
[12] CN1CCN(c2ncc3nc(-c4cc(F)cc(F)c4)c(=O)n(Cc4cccs4)c3n2)CC1
  A: i	B: i	C: i	D: 3.16µM*	E: 10.1%[0.457 µM]	F: -0.4%[11.4 µM]	G: 5.9%
[13] COc1ccc(C2C3=C(CC(C)(C)CC3=O)Nc3c2c(=O)[nH]c(=O)n3Cc2ccccc2)cc1OC (stereo not given)
  A: 1.1e-08M*	B: i	C: i	D: i	E: 16.4%	F: -1.3%	G: -21.1%
[14] Cc1cccc2cc3c(NC(=O)CC(C)C)nn(C)c3nc12
  A: i	B: i	C: i	D: -19.0%	E: 8.9%	F: 1.2%	G: 28.0%
[15] COc1cccc(Nc2ncc3nc(-c4ccc(F)cc4)c(=O)n(C)c3n2)c1
  A: ?	B: i	C: i	D: 47.3%	E: 16.8%	F: 2.1%[11.4 µM]	G: -1.1%
[16] COc1ccccc1CN(Cc1cc2cc(C)ccc2[nH]c1=O)Cc1nnnn1CC1CCCO1 (stereo not given)
  A: i	B: i	C: i	D: 22.6%	E: ?	F: -5.5%	G: -11.2%
[17] O=C(Cc1cc(=O)oc2cc(O)ccc12)NCC1CCC(C(=O)O)CC1 (stereo not given)
  A: ?	B: i	C: i	D: 28.8%	E: 8.8%	F: -0.5%	G: 13.6%
[18] Cc1ccc(C2NC(=O)NC3=C2CCc2ccccc23)cc1 (stereo not given)
  A: ?	B: i	C: i	D: 20µM*	E: 1.6%	F: 12.6µM*	G: -18.0%
[19] COc1ccc(-c2nc3cnc(N(C)C)nc3n(CCC#N)c2=O)cc1
  A: ?	B: i	C: i	D: 456.9%	E: 5.1%	F: -4.6%[11.4 µM]	G: -13.6%
[20] Cc1ccc(S(=O)(=O)Nc2ccccc2CNc2c(C)n(C)n(-c3ccccc3)c2=O)cc1
  A: i	B: ?	C: i	D: -3.4%	E: 4.5%	F: -2.1%	G: -4.6%
[21] O=c1c2ccccc2nc2ccc(NCc3ccco3)nn12
  A: ?	B: i	C: i	D: 13.7%	E: ?	F: -7.1%	G: -21.7%
[22] Cc1cccn2c(=O)c3cc(C#N)c(=N)n(CCN4CCOCC4)c3nc12
  A: ?	B: i	C: i	D: 2.3%	E: 1.0%	F: -1.3%	G: -14.8%
[23] CN(C)c1ncc2nc(-c3cccc(C#N)c3)c(=O)n(C[C@H]3CCCO3)c2n1
  A: i	B: i	C: i	D: 10.2%	E: ?	F: -2.9%[11.4 µM]	G: -19.5%
[24] COc1[nH]c(/N=C/c2ccccc2)c(C#N)c1C#N
  A: 3.58e-08M*	B: ?	C: ?	D: 63.6%	E: 5.8%	F: -1.0%	G: -7.3%
[25] CCNc1ncc2nc(-c3cn(C)c4ccccc34)c(=O)n(-c3ccc(OC)cc3)c2n1
  A: ?	B: i	C: i	D: 220.2%	E: 25.0%	F: -0.2%[11.4 µM]	G: ?
[26] Oc1ccc(Br)cc1-c1nc2cnccn2c1NC1CCCC1
  A: ?	B: i	C: i	D: 32.6%	E: -1.9%	F: -0.5%	G: 31.6µM*
[27] CN1CCN(c2nc(-c3ccccc3)c3cc(Cl)ccc3n2)CC1
  A: ?	B: i	C: i	D: -13.2%	E: 12.1%	F: 1.3%	G: 8.0%
[28] COc1cccc(Nc2ncc3nc(CCc4ccccc4)c(=O)n(CCC#N)c3n2)c1
  A: i	B: i	C: i	D: 3.9%	E: ?	F: 2.2%[11.4 µM]	G: -3.6%
[29] CCOC(=O)c1cc2c(=O)n3cccc(C)c3nc2n(CC2CCCO2)c1=NC(C)=O (stereo not given)
  A: i	B: ?	C: i	D: -0.5%	E: -5.2%	F: 0.3%	G: -6.0%
[30] COc1ccc(C2C(C#N)=C(N)Oc3cc(O)ccc32)cc1OC (stereo not given)
  A: ?	B: i	C: i	D: 142.9%	E: 3.4%	F: 3.8%	G: ?

One compound at a time, as listed above. Order of screens: Fluorescein fluor	Texas Red fluor	Rhodamine autofl	Tau fil binding	HEK293 cAMP cs	Luciferase inh	ERK AVP inh
`CN(C)c1ncc2nc(-c3cccc(C#N)c3)c(=O)n(C[C@H]3CCCO3)c2n1` reads i	i	i	10.2%	?	-2.9%[11.4 µM]	-19.5%
`CCOC(=O)c1cc2c(=O)n3cccc(C)c3nc2n(CC2CCCO2)c1=NC(C)=O` (stereo not given) reads i	?	i	-0.5%	-5.2%	0.3%	-6.0%

(continued)
Field names: A = Fluorescein fluor; B = Texas Red fluor; C = Rhodamine autofl; D = Tau fil binding; E = HEK293 cAMP cs; F = Luciferase inh; G = ERK AVP inh
[31] C=CCn1c(N)c(C(=O)OCC(C)C)c2nc3ccccc3nc21
  A: i	B: i	C: i	D: -8.5%	E: 14.0%	F: 0.5%	G: -8.8%
[32] CN1CC=C2C(C#N)=C(N)C(C#N)(C#N)C(CCc3ccccc3)C2C1 (stereo not given)
  A: 4.33e-08M*	B: ?	C: i	D: i	E: -6.9%	F: -5.2%	G: -13.7%
[33] COc1cccc(Cn2c(=O)c(-c3cccs3)nc3cnc(Nc4cccc(OC)c4)nc32)c1
  A: ?	B: i	C: i	D: .	E: ?	F: 1.1%[11.4 µM]	G: 41.7%[activator]
[34] Cc1cccn2c(=O)c3cc(C(=O)NC(C)C)c(=N)n(Cc4ccncc4)c3nc12
  A: i	B: i	C: i	D: 34.8%	E: -10.5%	F: -0.7%	G: -10.2%

Part of the list above in order of length of the SMILES, largest number first.
Field names: A = Fluorescein fluor; B = Texas Red fluor; C = Rhodamine autofl; D = Tau fil binding; E = HEK293 cAMP cs; F = Luciferase inh; G = ERK AVP inh
[33] COc1cccc(Cn2c(=O)c(-c3cccs3)nc3cnc(Nc4cccc(OC)c4)nc32)c1
  A: ?	B: i	C: i	D: .	E: ?	F: 1.1%[11.4 µM]	G: 41.7%[activator]
[34] Cc1cccn2c(=O)c3cc(C(=O)NC(C)C)c(=N)n(Cc4ccncc4)c3nc12
  A: i	B: i	C: i	D: 34.8%	E: -10.5%	F: -0.7%	G: -10.2%
[32] CN1CC=C2C(C#N)=C(N)C(C#N)(C#N)C(CCc3ccccc3)C2C1 (stereo not given)
  A: 4.33e-08M*	B: ?	C: i	D: i	E: -6.9%	F: -5.2%	G: -13.7%

This is a subset. The share of hits here may be higher or lower than overall.
